# Source: PubChem (several laboratories)
# HNF4A DNA FP: change in binding of human HNF4 alpha to DNA; P41235; HNF4a-FITC DNA binding, fluorescence polarization, 1 h; activity change, % at 10 µM; 360,000 tested, 0.3% active; AID 1224865; in the data active = activity change above about 30%, passing the limit was not always enough;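 note: controls were the assay level and a saturating level of protein; the project sought stronger binding though the title names inhibitors; some compounds called inactive have numbers as strong as hits; positive values seem to mean higher polarization but the record does not say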
# LANA-H2B inh: blocks KSHV LANA binding to histone H2A/H2B | 320,000 tested, 0.6% active | Q9QR71 | cell-free LANA-H2A/H2B peptide, fluorescence polarization | inhibition, % (no concentration beside the values); in the data active = inhibition mostly above about 10%, no sharp cut-off; inactive = mostly below about 6.7%;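 note: stock transfer was 7.5 nL into about 10 µL; 0% = median of vehicle wells and 100% = median of positive control wells; one replicate is shown; the record names a cut of 25% in any replicate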
# Target sequence (Q9QR71 whole entry, looked up): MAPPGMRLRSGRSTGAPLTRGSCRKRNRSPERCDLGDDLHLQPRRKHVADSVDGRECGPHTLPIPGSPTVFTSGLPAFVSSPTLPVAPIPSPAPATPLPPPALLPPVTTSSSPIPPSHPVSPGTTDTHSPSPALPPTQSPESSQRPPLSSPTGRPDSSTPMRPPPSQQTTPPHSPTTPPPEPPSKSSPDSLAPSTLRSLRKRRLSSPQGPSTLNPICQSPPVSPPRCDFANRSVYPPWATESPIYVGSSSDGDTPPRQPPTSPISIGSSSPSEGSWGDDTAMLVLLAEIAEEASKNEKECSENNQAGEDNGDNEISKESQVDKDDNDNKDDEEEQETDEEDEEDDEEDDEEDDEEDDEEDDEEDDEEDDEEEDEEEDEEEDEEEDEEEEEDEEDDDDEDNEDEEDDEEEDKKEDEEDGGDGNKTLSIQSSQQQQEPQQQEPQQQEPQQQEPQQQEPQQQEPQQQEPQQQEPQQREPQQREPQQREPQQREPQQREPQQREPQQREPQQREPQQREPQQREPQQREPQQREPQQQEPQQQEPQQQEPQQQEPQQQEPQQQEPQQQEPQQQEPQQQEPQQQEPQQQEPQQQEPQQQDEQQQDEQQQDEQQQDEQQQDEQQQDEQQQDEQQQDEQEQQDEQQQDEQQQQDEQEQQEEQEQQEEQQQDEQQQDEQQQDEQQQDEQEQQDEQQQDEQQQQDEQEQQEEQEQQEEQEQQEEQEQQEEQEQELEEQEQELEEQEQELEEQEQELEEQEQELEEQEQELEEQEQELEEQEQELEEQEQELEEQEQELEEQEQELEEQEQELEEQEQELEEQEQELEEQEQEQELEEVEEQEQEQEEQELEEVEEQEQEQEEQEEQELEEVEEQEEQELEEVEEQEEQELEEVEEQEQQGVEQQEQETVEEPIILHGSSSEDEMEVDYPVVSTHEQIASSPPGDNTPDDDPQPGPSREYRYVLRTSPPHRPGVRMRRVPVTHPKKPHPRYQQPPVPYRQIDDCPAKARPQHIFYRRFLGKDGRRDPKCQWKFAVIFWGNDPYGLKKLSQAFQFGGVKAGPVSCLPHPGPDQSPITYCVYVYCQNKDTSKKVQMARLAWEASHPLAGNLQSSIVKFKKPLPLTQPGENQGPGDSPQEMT
# UCH37 DUB inh: human UCH37 deubiquitinating enzyme inhibition; Q9Y5K5; purified proteasome/UCH37, Ub-AMC cleavage fluorescence; inhibition, % (concentration not given with the values); 330,000 tested, 0.33% active;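 active = mean of two replicates above 20%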;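 note: 0% = compound-free wells with enzyme and 100% = wells lacking proteasome; stock transfer was 100 nL into about 20 µL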
#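 Material: Human UCH37 enzyme supplied as purified proteasome complex | Schedule: 30 min compound-proteasome preincubation then 25 min substrate reaction, room temperature | Detection: AMC fluorescence from Ub-AMC cleavage, excitation 355 nm, emission 460 nm | Benchmarks: Wells without proteasome as full block, compound-free enzyme plus substrate as uninhibited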
# Vif A3G: inhibitors of Vif binding to APOBEC3G peptide, primary screen, biochemical, TR-FRET, GST-Vif 1-94, biotin-A3G peptide, dose response retest (AID 1117319). TR-FRET GST-Vif / biotin-A3G peptide binding; higher % means a stronger effect; test concentration not given here; strong numbers were not always called active. inhibition, %; hits with a dose series show IC50 in µM. 260,000 tested, 0.57% active;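 active = above the screen mean plus three standard deviations and confirmed in dose response; inconclusive = results disagree or hit not tested in dose response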;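 note: Vif residues 1-94 fused to GST binding biotinylated APOBEC3G peptide 110-148; 0% = full assay without inhibitor and 100% = GST in place of GST-Vif; retest series ran down from 100 µM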
# E coli growth: blocks Escherichia coli growth; OD600, 23 h; active compounds read low; OD600 absorbance (test concentration not listed); 330,000 tested, 0.21% active;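 active = OD600 absorbance below the run mean of sample wells minus 3.6 SD, in any replicate, cut at about 0.56 in these data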;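 note: stock transfer was 300 nL into about 60 µL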
# Beta2AR agonist: human beta-2 adrenergic receptor agonism by FAP; response, % (no concentration beside the values); Am2.2-beta2AR cells, FAP receptor internalization, flow cytometry; reference of the scale not given here; 340,000 tested, 0.43% active; P07550; AID 504454;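 active = response above a set limit, near 3 SD of response in nonfluorescent compounds, cut at about 42% in these data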;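 note: stock transfer was 100 nL into about 11 µL; a reference agonist was the positive control; negative values mostly stem from fluorescent compounds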
# Bfl-1 A1 inh: inhibitors of the anti-apoptotic protein A1, read as caspase activation; MEF A1-2A-BIM cells, Caspase-Glo 3/7 luminescence, 3 h; percent of clofoctol response, vehicle zero; caspase activation, % (no concentration beside the values); 330,000 tested, 0.066% active; AID 2462;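 active = over half of replicate activation scores above 10%, or exactly half above 10 with the replicate mean above 10; inconclusive = replicate mean below 10 yet half the replicates above 10; inactive = over half of replicates below 10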;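 note: wells of about 30 µL received 50 nL stock; many hits fall short of the cut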
# Active calls of the source: *; ? = inconclusive; . = not tested or not shown.
SMILES,HNF4A DNA FP,LANA-H2B inh,UCH37 DUB inh,Vif A3G,E coli growth,Beta2AR agonist,Bfl-1 A1 inh
CN1CC(=O)N2C(c3ccc(Cl)cc3)c3[nH]c4ccccc4c3C[C@H]2C1=O (stereo partly drawn),1.5,0.5,3.1,-10%,0.68,-2,1.6
Cc1nn(C)c(C(=O)Nc2ccn(C34CC5CC(CC(C5)C3)C4)n2)c1[N+](=O)[O-],0.5,1.3,5.5,-1%,0.7,10,0.2
Cc1[nH]n(-c2ccccc2)c(=S)c1C=Nc1ccc([N+](=O)[O-])cc1,3.4,-6.3,11,7%,0.68,-122,-0.4
CC(CC(=O)O)CC(=O)N1CCN(S(=O)(=O)c2cccs2)CC1 (stereo not drawn),3.7,-2.4,1.3,.,0.73,-1,0.5
COc1ccccc1NC(=O)CCSc1nc(C)cc(C)n1,1.5,-3.6,0.1,.,0.69,0,-0.5
CN(CCc1ccccc1)Cc1nc(-c2cnccn2)no1,0.3,3.3,0.4,0%,0.69,-2,0.4
NC(=O)c1c(-c2ccccc2)oc2ccc(O)cc12,3.1,17*,0.8,2%,0.69,3,-1.2
CC(C)(C)NC(=O)c1cccnc1Sc1ccccc1,-0.6,-1.9,.,-1%,.,0,0.9
Cc1ccc(-n2c(SCC(=O)O)nc3sc4c(c3c2=O)C(C)CCC4)cc1 (stereo not drawn),-0.6,4.4,5.2,4%,0.6,10,-0.6
CC(Sc1nnc(C(C)Oc2ccccc2F)o1)C(=O)NCc1ccc2c(c1)OCO2 (stereo not drawn),3.8,-9.1,-2.3,.,0.67,-4,0.0
CCCn1c(SCC(=O)Nc2ccccc2CC)nnc1C(C)C,0.7,-2.6,1.0,-2%,0.73,4,1.2
CCCCn1c(N)c(N(CC(C)C)C(=O)CSc2nn(-c3ccc(F)cc3)c(=S)s2)c(=O)[nH]c1=O,3.7,.,1.9,.,0.7,6,.
C[n+]1ccc(/C=N/Nc2nc(Cl)c(C#N)c(Cl)c2Cl)cc1,13,-0.3,.,?,.,-5,1.2
COc1cc(C(=O)N[C@H](C(=O)OCC(=O)NC2CCCCCC2)C(C)C)cc(OC)c1OC,10,-2.1,1.4,.,0.7,-1,0.4
Cc1cc(C)n2nc(SCC(=O)Nc3c(C)n(C)n(-c4ccccc4)c3=O)nc2n1,1.4,1.0,4.2,4%,0.78,-5,0.2
CSc1ncc(CN2CCN(C(C)C)C(CCO)C2)cn1 (stereo not drawn),0.1,-1.8,0.9,29%,0.61,-2,-1.1
CC1CCCC(C)N1C(=O)c1cc(-c2cccs2)on1 (stereo not drawn),1.3,4.3,2.2,24%,0.65,-5,-0.1
CSCCC(NC(=O)c1ccco1)c1nc2ccccc2[nH]1 (stereo not drawn),-0.1,4.1,2.2,.,0.69,-1,0.2
CCc1ccc(NC(=S)N(CCOC)C2CCN(C(C)=O)CC2)cc1,1.4,-1.6,4.2,-9%,0.66,-1,-0.3
CC1=C(C(=O)OCc2ccccc2)C(c2ccc(Br)cc2)NC(=O)N1CCCCCC(=O)O (stereo not drawn),-1.1,-1.4,0.4,.,0.65,-3,0.2
CC(=O)c1ccc(OCCCC(=O)OCC(=O)N2CCN(c3ccccc3)CC2)cc1,-0.8,2.0,3.5,-6%,0.76,1,-0.2
CSCCC(NC(=O)c1ccc(Cl)cc1)C(=O)OCC(=O)NCc1ccco1 (stereo not drawn),2.5,2.8,4.0,-5%,0.66,8,-0.2
COc1ccc(C(=O)Nc2ccnn2C2CCN(Cc3cccnc3)CC2)cc1,3.9,2.7,1.2,.,0.71,-3,0.3
CC(C)C(=O)c1cn(CC(=O)NCc2ccc3c(c2)OCO3)c2ccccc12,-0.2,-2.2,-2.6,-4%,0.68,-3,-1.5
O=C(c1cccs1)N1CCN(C(=O)c2ccco2)c2ccccc2C1,1.3,-9.5,2.4,22%,0.75,-6,-0.7
Cc1cccc(N2C(N)=C(C#N)C(C#N)(C#N)C2c2ccccc2)c1 (stereo not drawn),1.8,5.6,-9.6,24%,0.67,6,-0.1
O=S(=O)(N1CCOCC1)n1cnc2ccccc21,-0.2,5.1,1.6,-1%,0.65,0,0.3
Cc1ccc(NC(=O)CN(C)C(=O)CSc2nc(C)cc(C)n2)cc1,-2.9,-2.3,.,.,.,-2,-0.1
CC(C)(C)S(=O)(=O)c1ccccc1-c1noc(-c2ccccc2)c1C(N)=O,1.8,-9.6,4.4,.,0.66,4,0.2
C#CCNc1c(C)c(C)nc2ncnn12,-1.7,2.3,1.4,23%,0.66,-7,-0.3
O=C(c1cnccn1)N1CCc2ccccc21,-1.1,-0.9,6.4,32%,0.65,-2,-0.4
NC(=O)C1CCN(C2CC(=O)N(c3cccc(F)c3)C2=O)CC1 (stereo not drawn),-2.2,0.8,2.0,4%,0.66,-1,0.5
O=C(CCNS(=O)(=O)c1ccccc1)NCCCc1ccccc1,-4.7,.,3.3,-3%,0.71,5,.
C[C@H](CO)N1C[C@H](C)[C@@H](CN(C)C(=O)Nc2ccc(C(F)(F)F)cc2)Oc2c(NS(=O)(=O)c3cccs3)cccc2C1=O,2.9,7.8,5.1,.,.,-3,0.6
Cc1nc(Nc2nc(CSc3nc4ccccc4[nH]3)cc(=O)[nH]2)nc2ccccc12,2.8,-7.0,5.4,4%,.,8,-0.1
O=C(COC(=O)[C@H](Cc1ccccc1)NC(=O)c1cccs1)Nc1c(Cl)cccc1Cl,-3.5,-1.9,1.3,.,0.65,-4,0.8
COc1cc(-c2nnc3sc(-c4cccs4)nn23)cc(OC)c1OC,-1.4,-8.0,-5.8,-8%,0.73,0,0.2
COc1cc(CNc2ccc3[nH]c(=O)[nH]c3c2)cc(Cl)c1OCC(=O)NC(C)(C)C,0.2,-4.5,-0.2,>51µM*,0.67,2,0.6
OCc1cn(-c2ccccc2)nc1-c1ccc(-c2nn(-c3ccccc3)cc2CO)cc1,-1.2,2.7,-3.1,?,0.78,13,0.6
COc1ccccc1CN1C[C@@H]2C[C@@H](c3ccc(Cl)cc3)N3CCC[C@@]23C1=O,-2.8,-2.6,-0.1,.,0.67,-4,0.6
Cc1ccc(S(=O)(=O)N2CCCN(C(=O)c3cc4ccccc4[nH]3)CC2)cc1,0.3,6.0,-0.3,.,0.66,5,0.2
Cc1ccc(OCC(=O)NNC(=O)c2ccc(-n3cncn3)c([N+](=O)[O-])c2)cc1,-5.4,-2.8,0.1,1%,0.67,-4,-1.6
Cc1ccc(NC(=O)c2oc3ccc(S(=O)(=O)N4CCOCC4)cc3c2C)cc1C,0.9,5.0,-147,8%,0.7,16,-0.3
CCN(CC)CCN1C(=O)C2C(C(=O)Nc3cccc(C)c3)C3C=CC2(O3)C1C(=O)NC1CCCC(C)C1C (stereo not drawn),-3.6,4.7,0.7,.,0.67,-4,0.3
O=C(O)CSCCn1cccn1,-1.5,-1.0,0.9,5%,0.7,4,0.2
CCc1ccc(OCc2nnc(-c3ccccc3Br)o2)cc1,-1.2,-1.0,3.8,.,0.72,-2,-1.1
CC(CCc1ccccc1)NC(=O)CN1CCc2ccccc2C1 (stereo not drawn),2.4,1.6,0.9,.,0.65,3,-0.5
CCN(c1ccccc1)S(=O)(=O)c1cc2c(cc1C)N(C)CCO2,-1.5,2.3,5.6,0%,0.77,4,-0.3
CCCOC(=O)C[N+](C)(C)CCOC1CC2CCC1(C)C2(C)C (stereo not drawn),-1.8,5.2,0.6,20%,0.72,-8,0.1
CC(C)(C)OC(=O)N1CCC(NC(=O)c2[nH]cnc2C(=O)N[C@@H](Cc2ccccc2)C(=O)OCc2ccccc2)CC1,1.9,5.9,4.3,.,.,79*,1.2
CCOC(=O)C1C(c2cccc(F)c2)NC(=S)NC1(O)C(F)(F)F (stereo not drawn),3.3,.,0.6,-1%,0.71,-3,1.0
CCOC(=O)CSc1nc(N)c(C#N)c(-c2cccs2)c1C#N,-1.8,-1.4,-10,4%,0.79,15,-0.2
CCn1nc(C)c(Oc2ccccc2O)c1C,-0.5,-7.1,1.5,0%,0.72,-3,-0.3
CC1(C)CC(N2CCCCC2)=CC(=[N+]2CCCCC2)C1,0.4,-0.3,14,3%,0.72,-103,-1.3
COc1cccc(CN2C(=O)c3ccccc3S2(=O)=O)c1,-4.9,-2.9,2.9,.,0.65,4,0.8
CCn1c(COc2ccc(C)cc2)nnc1SCC(=O)Nc1ccc2c(c1)OCCO2,-0.7,4.4,0.0,3%,0.69,1,-1.0
CCOC(=O)c1[nH]c2ccc(Br)cc2c1NC(=O)CCN1CCC(C(=O)OCC)CC1,3.1,0.9,5.5,-14%,0.76,21,1.5
COc1cc2c(cc1OC)C1=C(C#N)CCC(=O)N1CC2,-2.0,4.1,4.9,2%,0.69,0,-2.6
CCCSc1ccc2nc(NC(=O)OC)[nH]c2c1,3.4,4.1,1.6,15%,0.68,13,-2.0
CCc1cc2c(=O)n(CC(C)C)cnc2s1,1.4,-5.7,0.5,-3%,0.68,-16,-0.6

# Further results
SMILES,HNF4A DNA FP,LANA-H2B inh,UCH37 DUB inh,Vif A3G,E coli growth,Beta2AR agonist,Bfl-1 A1 inh
CCc1ccc(Nc2ncnc3nc[nH]c23)cc1,-3.3,-0.8,2.1,.,0.64,11,-2.7
Cn1nccc1C(=O)N/N=C/c1c(O)ccc2ccccc12,26,2.0,.,.,.,-4,-2.2
CCOC(=O)N1CCN(C(=O)/C(=C\c2ccc(SC)cc2)NC(=O)c2ccccc2)CC1,-1.8,-1.5,4.8,-8%,0.65,-5,0.6
COc1ccc(CCNC(=S)Nc2cc(C)cc(C)c2)cc1,-0.7,-1.1,2.4,16%,0.78,0,0.5
O=C(CN1C(=O)CSc2ccc(S(=O)(=O)N3CCOCC3)cc21)NCc1cccnc1,-2.6,-3.6,-0.8,1%,0.68,0,-0.2
Cc1cccc(NC(=O)Cn2c(C)c(C#N)c3ccccc32)c1C,0.6,-1.4,2.4,-2%,0.69,10,1.8
O=C1C=C(c2cccc3c2oc2ccccc23)CCC1,0.1,-9.0,-1.9,.,0.63,-14,0.3
O=C1/C(=C/c2ccc3c(c2)OCO3)Oc2cc(OCC(=O)N3CCC[C@H]3C(=O)O)ccc21,0.8,-0.1,6.0,.,0.68,1,0.2
NS(=O)(=O)c1ccc(Nc2ccc([N+](=O)[O-])c3nonc23)cc1,30,-5.6,26*,6%,0.66,5,-1.4
O=C(Nc1nc2c(s1)CN(Cc1ccccc1)CC2)c1cccc(S(=O)(=O)N2CCc3ccccc32)c1,47,3.0,-29,-124%,0.71,-15,0.3
CCSc1ccc([C@@H]2[C@@H]3C(=O)N(CC)C(=O)[C@@H]3[C@]3(C(=O)OC)CCCCN23)cc1OC,-0.2,4.3,-0.5,.,.,8,-1.2
CN(Cc1ccccc1)C(=O)[C@H]1CCC(=O)N1Cc1ccco1,2.1,.,0.7,0%,0.69,-4,.
CC1=CS/C(=C(/C#N)C(=O)N2CCOCC2)N1c1ccccc1,-1.0,0.0,2.4,-10%,.,-3,0.2
O=S(=O)(c1ccc(Sc2nnc3ccccn23)nc1)N1CCOCC1,-1.8,-1.3,1.2,4%,0.69,-2,2.0

# Shown with values under each structure: part of the list above
# Values run as follows: HNF4A DNA FP, LANA-H2B inh, UCH37 DUB inh, Vif A3G, E coli growth, Beta2AR agonist, Bfl-1 A1 inh
> COc1ccc(CCNC(=S)Nc2cc(C)cc(C)c2)cc1
→ -0.7, -1.1, 2.4, 16%, 0.78, 0, 0.5
> CCSc1ccc([C@@H]2[C@@H]3C(=O)N(CC)C(=O)[C@@H]3[C@]3(C(=O)OC)CCCCN23)cc1OC
→ -0.2, 4.3, -0.5, ., ., 8, -1.2
> CCc1ccc(Nc2ncnc3nc[nH]c23)cc1
→ -3.3, -0.8, 2.1, ., 0.64, 11, -2.7
